D2 potentiator: potentiates the human D2 dopamine receptor allosterically; DiscoveRx D2 beta-arrestin cells, luminescence, 90 min; 100% = 57 uM dopamine signal; 360,000 compounds, 0.23% hits; potentiation, % (concentration not given with the values); P14416; active = potentiation of 50% or more; inconclusive = 30% to 50%; inactive = 30% or less;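 also: tested on top of an EC20 dose of dopamine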
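PathHunter beta-arrestin assay in DiscoveRx D2 cells. Compounds were added with an EC20 of dopamine (50 nM final) for 90 min at 37 deg C. Luminescence was read 1 h after detection reagent, with 57 uM dopamine as the EC100 control.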
Menin MLL FP FL: menin-MLL binding inhibition, fluorescein peptide; Fluorescence polarization, fluorescein-MLL peptide displacement from menin; FP activity change, % at 61.4 µM; 290,000 tested, under 10 active; AID 1766; inconclusive = falling polarisation curve, or a change in total fluorescence; inactive = total fluorescence flat and polarisation flat or rising; no compound was filed as active; the % refers to the polarisation; negative = inhibition;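 also: % of control where 0% means no effect; inhibitors lower the polarisation; unlabelled MLL peptide was the positive control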
Sfp PPTase inh: inhibitors of Bacillus subtilis Sfp phosphopantetheinyl transferase | Biochemical Sfp PPTase activity, qHTS | Potency, µM, for inactives: max response, negative = inhibition, usual class: inhibitors | 310,000 compounds, 3.5% hits; active = well fitted inhibition curve with a large enough effect; inconclusive = small, poorly fitted or top-dose-only effect, or another doubt; inactive = no such curve, though single readings can be large or run the other way;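 also: the enzyme is Sfp with the accession as filed and its product quenches rhodamine fluorescence; potency is read from the fitted curve at half-maximal effect; 0% = enzyme reaction without inhibitor and -100% = no enzyme wells; top concentration of the series not given in the record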
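Fluorescence-quenching assay: 15 nM Sfp-PPTase preincubated 15 min at room temperature with compound, then 5 uM rhodamine-CoA and 12.5 uM BHQ-2-labelled YbbR peptide added. Fluorescence (ex 525/em 598 nm) read at start and after 30 min; difference gives rate.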
gsp antagonist: gsp mutant antagonism. gsp-mutant cells, cAMP HTRF, 30 min; control for the full effect not named in the record. Potency, µM (top dose mostly 76.9 µM), without a hit: top-dose activity change, negative = inhibition, hits mostly inhibitors. 340,000 compounds, 0.4% hits. AID 624288; active = falling curve of any shape with a large fitted effect; inconclusive = falling curve, mostly with a smaller effect; inactive = flat or rising curve; cell line not stated here;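 also: intracellular cAMP measured with PDE inhibitor Ro 20-1724 present during compound exposure; potency is read from the fitted curve at half-maximal effect; % is scaled to controls: 0 for no effect and ±100 for the full control effect; nearly all actives have a fitted effect of over 65% in size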
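G418-selected cells were plated in DMEM/10% FBS for 16-24 h at 37C, then treated with compounds plus the PDE inhibitor […] (300 uM solution added) for 30 min at 37C. Intracellular cAMP was measured by HTRF after 30 min lysis at room temperature.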
ClpP mod: qHTS Assay for Activators of ClpP. purified B. subtilis ClpP, FRET peptide cleavage, 20 min. ATP-dependent Clp protease proteolytic subunit (Bacillus subtilis (strain 168)), P80244. Potency, µM (highest dose often 57.5 µM), without a hit: at the highest dose activity change, negative = active. 340,000 compounds, 1.9% hits; active = well fitted falling curve with a large enough effect; inconclusive = small, poorly fitted or top-dose-only effect; inactive = no such curve, though single readings can be large or run the other way; also: potency is read from the fitted curve at half-maximal effect; the source files actives as falling curves though it sought activators and does not explain the sign; nearly all actives have a fitted effect of over 65% in size; many hits overshoot -100%
Target sequence (P80244 whole entry, looked up): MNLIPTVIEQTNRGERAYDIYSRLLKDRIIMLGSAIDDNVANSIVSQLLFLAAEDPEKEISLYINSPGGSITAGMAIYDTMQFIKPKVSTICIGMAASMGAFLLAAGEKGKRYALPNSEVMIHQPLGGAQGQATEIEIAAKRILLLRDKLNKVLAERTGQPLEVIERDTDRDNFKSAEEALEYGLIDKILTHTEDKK
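ClpP 10 microg/mL final, pH 8 Tris/KCl buffer with BSA, glycerol, Tween-20; compound pinned in; FRET-FV substrate; RT 20 min; Ex320/Em430; ΔFRET vs ADEP 5.8 microM, DMSO, no enzyme.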
TRPV1 potentiator: enhances activation of the human vanilloid receptor TRPV1 | Q8NER1 | TRPV1-expressing cells, Fluo-8 calcium influx, capsaicin EC20 potentiation; host cell line not named in the record; control for the full effect not named in the record | potentiation, % at 8.33 µM | 320,000 compounds, 0.02% hits | AID 540277; active means potentiation above 80%; inconclusive means 30% to 80%; inactive means below 30%; also: 0% is about no effect
Target sequence (Q8NER1 whole entry, looked up): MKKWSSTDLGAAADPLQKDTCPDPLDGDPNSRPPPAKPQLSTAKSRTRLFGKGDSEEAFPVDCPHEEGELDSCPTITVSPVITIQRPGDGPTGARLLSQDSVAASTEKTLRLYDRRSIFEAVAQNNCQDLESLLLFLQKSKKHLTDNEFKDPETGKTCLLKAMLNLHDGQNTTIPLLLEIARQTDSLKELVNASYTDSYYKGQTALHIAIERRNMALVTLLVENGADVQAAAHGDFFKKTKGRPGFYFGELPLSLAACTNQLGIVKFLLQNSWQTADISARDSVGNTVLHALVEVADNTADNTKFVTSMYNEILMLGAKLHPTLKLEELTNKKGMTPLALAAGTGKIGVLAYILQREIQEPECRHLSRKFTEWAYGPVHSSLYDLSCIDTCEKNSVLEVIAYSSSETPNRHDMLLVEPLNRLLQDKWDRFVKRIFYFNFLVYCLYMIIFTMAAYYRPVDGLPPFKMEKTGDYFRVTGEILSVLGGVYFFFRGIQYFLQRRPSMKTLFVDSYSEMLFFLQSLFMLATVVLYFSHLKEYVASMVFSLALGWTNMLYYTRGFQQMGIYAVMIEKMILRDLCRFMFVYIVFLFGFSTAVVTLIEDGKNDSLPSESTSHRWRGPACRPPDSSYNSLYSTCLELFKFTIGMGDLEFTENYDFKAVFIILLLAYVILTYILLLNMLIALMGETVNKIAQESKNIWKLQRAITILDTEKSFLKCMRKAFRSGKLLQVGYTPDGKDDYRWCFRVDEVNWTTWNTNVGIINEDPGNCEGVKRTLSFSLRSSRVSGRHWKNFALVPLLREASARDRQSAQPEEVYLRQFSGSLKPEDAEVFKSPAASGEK
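Fluo-8 calcium influx in TRPV1-expressing cells, kinetic read (ex 480/em 520 nm). Compound added and read 3 min for agonist activity, followed by capsaicin at EC20 final and 2 min further read for enhancement.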
gsp ag: activates gsp, the McCune-Albright syndrome mutation. AID 624287. Potency, µM (highest dose often 76.9 µM), inactives show at the top dose activation (cAMP increase), actives largely listed as activators. gsp mutant cells, cAMP HTRF, 30 min; control for the full effect not named in the record. 340,000 compounds, 0.13% hits; active = well fitted activation curve with a large enough effect; inconclusive = small, poorly fitted or top-dose-only effect, or another doubt; inactive = no such curve, though single readings can be large or run the other way; cell line not stated here;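 also: phosphodiesterase inhibitor Ro 20-1724 added with compounds to block cAMP breakdown; potency is read from the fitted curve at half-maximal effect; nearly all actives have a fitted effect of over 60% in size; about a fifth of the inactives were tested at one dose only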
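Cells stably selected in G418 were plated at 2000/well, grown 16-24 hr, then given compounds in DMSO with the PDE inhibitor […] (300 uM solution added) for 30 min at 37C; cAMP was read by HTRF.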
Active calls of the source: *; ? = inconclusive; . = no result given; & = joins results of further samples; [ ] = another dose, or the depositor's remark.

SMILES	D2 potentiator	Menin MLL FP FL	Sfp PPTase inh	gsp antagonist	ClpP mod	TRPV1 potentiator	gsp ag
O=C(Nc1ccccc1)Nc1snnc1C(=O)Nc1cccc(O)c1	-3	?	-16%	-22%	.	1	10%[15.4 µM]
O=C(CN1CCCCCC1)N1c2ccccc2C=Cc2ccccc21	3	0.1	4%	-2%	0.9%	10	21%
Cc1ccc(S(=O)(=O)CCC(=O)NC2CCCC2)cc1	-3	.	11%	16%	0.4%	5	-24%
Cc1ccc(NC(=O)CN(C)C(=O)c2cc3ccccc3o2)cc1	-11	2.7	23%	7%	.	3	-14%
CC(=O)Nc1sc(C)c(C)c1C(=O)OCC(=O)Nc1ccc(S(N)(=O)=O)cc1	-10	.	.	0%	?	.	24%
COCCN(CCOC)C(=O)c1ccc(CSc2nc3ccccc3s2)cc1	4	.	-8%	-18%	-1.3%	12	?
Nc1nc(CSc2nnc(-c3cccc(F)c3)n2-c2ccccc2)nc(N2CCOCC2)n1	-3	0.9	-4%	-8%	1.1%	-2	-26%
CN1C(=S)SC(/[N+]([O-])=C\c2ccccc2)C1(C)C (stereo unspecified)	-6	0.0	-22%	-5%	0.4%	-8	?
Cc1cc(O)c(NC(=O)c2cc([N+](=O)[O-])ccc2Cl)cc1C	-5	6.8	-9%	-10%	3.3%	10	?
COC(=O)c1ccccc1NC(=O)CSc1nc2ccsc2c(=O)n1Cc1ccc(C(=O)O)cc1	-4	.	.	.	-0.5%	.	-29%
O=S(=O)(NCCSc1ccc(Cl)cc1)c1ccc(F)cc1	-2	6.9	8%	7%	-2.4%	?	?
CS(=O)(=O)N(CCc1ccccc1)CC(=O)N1CCc2ccccc2C1	17	0.3	7%	-9%	-1.5%	-13	0%
COc1ccc(N=C2SCC(c3ccc(C)cc3)=NN2CCO)cc1	-13	1.2	-8%	-1%	.	13	-1%[15.4 µM]
O=C(Cn1c(C(F)(F)F)nc2ccccc21)Nc1ccccc1N1CCOCC1	-9	0.2	4%	-2%	2.4%	-2	-1%
CCN(CC)S(=O)(=O)c1ccc(C)c(NC(=O)Cc2ccc(S(=O)(=O)N3CCOCC3)s2)c1	-33	.	12%	-20%	0.6%	-3	-9%[15.4 µM]
O=C(Cn1c(=O)c2ccccc2n(CC(=O)N2CCCCC2)c1=O)N1CCCCC1	-10	1.0	-5%	9%	-14%	11	6%
CCOC(=O)CSc1nc2c(sc(=S)n2-c2ccccc2OC)c(=O)n1-c1ccccc1OC	-4	6.7	10%	-3%	-1.2%	8	8%[15.4 µM]
COc1ccc(N2CCN(C(=O)C3CCN(S(=O)(=O)c4ccc(F)cc4)CC3)CC2)cc1	5	-3.2	1%	-8%	.	11	-5%
COc1ccc(NS(=O)(=O)c2ccc(NC(=O)c3ccc(CN4CCOCC4)cc3)cc2)cc1	2	17	2%	-10%	.	-16	-3%
CCCCN(CC)C(=O)c1cc2cc3ccc(Cl)cc3nc2o1	-24	-1.5	-2%	-9%	-18%	-25	-3%
O=C1NC(=O)C2(CCCC2C(=O)O)N1 (stereo unspecified)	-8	.	.	-9%	1.4%	.	-11%
COc1ccc(CCC(C)NCCc2ccc(Cl)cc2Cl)cc1 (stereo unspecified)	-64	0.9	-12%	18%	-1.7%	1	-3%
N=c1c(C(=O)NCCc2ccccc2)cc2c(=O)n3ccccc3nc2n1Cc1ccco1	-9	13	-21%	4%	.	5	12%[15.4 µM]
CCOC(=O)c1nn(-c2ccc(Cl)cc2)c2nnc(Cc3ccccc3)c(=O)n12	-13	-1.3	11%	-9%	-2.0%	-17	25%
O=C(NCC1OCCc2ccccc21)c1cc(COc2c(F)cccc2F)on1 (stereo unspecified)	4	5.9	9%	-1%	.	-3	11%
Cc1nc(NC(=O)COC(=O)[C@@H](NC(=O)c2ccco2)C(C)C)c(Cl)cc1Cl	-14	.	.	2%	-0.9%	.	-4%
CC(OC(=O)c1cc2sccc2n1C)C(=O)NCc1cccs1 (stereo unspecified)	-4	-0.1	0%	-5%	-1.5%	1	-15%
COc1ccccc1-c1nc(COc2ccc(Cl)cc2Cl)no1	-2	0.3	8%	1%	-4.8%	3	-2%[15.4 µM]
C[C@@H]1CCCCO[C@H](CN(C)C(=O)c2ccccc2)[C@@H](C)CN([C@H](C)CO)C(=O)c2cc(NC(=O)c3ccncc3)ccc2O1	-7	.	.	.	0.9%	.	-53%[inhibitor]
O=C(Cn1cnc2cc([N+](=O)[O-])ccc2c1=O)Nc1ccc(N2CCOCC2)cc1	2	-0.6	12%	-4%	.	-7	-20%[15.4 µM]
CC(C)NC(=O)COC(=O)c1ccccc1CSC1=NCCS1	-1	11	0%	1%	.	3	10%[15.4 µM]
Cc1cccc(/C=C/C(=O)c2cc(Br)ccc(=O)c2O)c1	-8	?	14µM*	?	1.2%	10	16%
CC(=O)c1ccc(N2CCN(C(=O)c3cc(-c4ccncc4)nc4ccc(Cl)cc34)CC2)cc1	0	.	-20%	-6%	-2.8%	28	?
COc1ccc(NC(=O)CN2CCC(C(N)=O)(N3CCCCC3)CC2)c(OC)c1	-6	-1.9	4%	-45%	.	5	26%[15.4 µM]
O=C(CCN1CCCCC1)N/N=C/c1ccc(Br)cc1	-6	-0.5	10%	5%	2.0%	7	13%
Cc1ccc(-n2cc(-c3ccccc3)c3c(N4CCOCC4)ncnc32)cc1	23	-1.4	-25%	?	.	12	0%[15.4 µM]
CCCCCCCCCCCCS[C@H]1CS(=O)(=O)C[C@@H]1O	2	-2.0	20%	10%	2.0%	29	-7%
COc1ccccc1C(=O)C1CCCN(C(=O)c2ccccc2C(C)=O)C1 (stereo unspecified)	-3	1.0	12%	3%	-0.7%	23	18%
Cc1cc(C(=O)C(C)Cl)c(C)n1Cc1ccco1 (stereo unspecified)	0	0.1	-8%	-8%	.	8	19%[15.4 µM]
Cc1ccc(C)c(N2N=C(C(=O)OCc3nnc(-c4ccccc4Br)o3)CCC2=O)c1	-15	.	.	.	0.7%	.	?
Nc1cccc(-n2nncc2-c2ccccc2)c1	1	6.1	7%	5%	-5.3%	10	-20%
O=S(=O)(c1ccccc1)c1nc(-c2ccc(F)cc2)oc1N1CCOCC1	-8	0.6	9%	-24%	2.4%&-1.4%	-7	17%[15.4 µM]
COc1ccc(NC(=O)CN2CCN(c3c(C)cccc3C)CC2)cc1	-15	-1.9	-23%	-14%	.	-7	-1%
CCOc1ccc(NC(=O)Nc2cccc(C)n2)cc1	-1	-1.8	11%	10%	-2.0%	17	4%
COc1ccc(Cn2nnnc2C(C(C)C)N2CCc3ccccc32)cc1 (stereo unspecified)	3	0.0	-4%	-3%	-2.9%	20	?
Cc1ccc(NC(=O)CCc2c(C)nn(-c3ccc(N4CCOCC4)nn3)c2C)cc1C	-1	0.1	15%	0%	-0.3%	7	?
NC(=O)C1=NOC(CNc2ncc(C(F)(F)F)cc2Cl)C1 (stereo unspecified)	-6	14	10%	-6%	-5.1%	-11	-27%
CCn1cc([N+](=O)[O-])c(=O)c2cc(F)c(N3CCOCC3)cc21	5	-1.4	?	0%	-3.6%	-2	-34%[inhibitor]
COc1ccccc1S(=O)Cc1ccc(C(=O)O)o1 (stereo unspecified)	-10	0.8	-11%	5%	2.4%	6	2%
COc1cc(NC(=O)C/C(C)=N/NC(=O)Cc2ccc(Cl)cc2)c(OC)cc1Cl	-2	-0.6	15%	-10%	?	-1	10%
CC(=O)Nc1cc2c3c(cccc3c1)-c1ccccc1-2	1	.	.	11%	-0.4%	.	15%[15.4 µM]
Cc1ccc(NC(=O)c2cc3ccccc3o2)cc1Cl	-16	0.8	-13%	-4%	0.3%	-10	11%[15.4 µM]
O=C(c1cccs1)N(C(=O)c1cccs1)c1ccc(Br)cn1	-21	-1.4	-11%	-10%	2.1%	8	-14%
Cc1c(C(=O)NNC(=O)c2ccccc2O)oc2ccccc12	-2	.	.	.	-5.7%	.	-185%[inhibitor]
Cc1cccc(NC(=S)NNC(=O)c2csc(C(C)C)c2)c1	-10	0.5	10%	-7%	7.9%	-35	35%
CC1(C)Cc2ccccc2-c2nnc(-c3cccnc3)n21	-2	3.6	9%	15%	-1.4%	-16	-33%[15.4 µM]
Cc1onc(-c2c(F)cccc2Cl)c1C(=O)Nc1cccc(S(=O)(=O)N2CCCCC2)c1	7	.	.	-16%	-0.4%	.	-18%
O=C(CCN1C(=O)S/C(=C\c2ccccc2)C1=O)N1CCCCC1	-6	.	7%	-4%	.	-13	?
Cn1cc(CNCCN2CCCCC2=O)c(-c2cccc(Cl)c2)n1	-10	1.4	16%	0%	.	3	19%
CCc1cc(C(=O)NNC(=S)Nc2cc(C)ccc2C)cs1	-20	1.6	-1%	-4%	3.9%	25	-26%

Whole records as entered above. Values in the order: D2 potentiator, Menin MLL FP FL, Sfp PPTase inh, gsp antagonist, ClpP mod, TRPV1 potentiator, gsp ag
Listed for O=C(c1cccs1)N(C(=O)c1cccs1)c1ccc(Br)cn1 → -21, -1.4, -11%, -10%, 2.1%, 8, -14%
Listed for Cc1cc(C(=O)C(C)Cl)c(C)n1Cc1ccco1 (stereo unspecified) → 0, 0.1, -8%, -8%, ., 8, 19%[15.4 µM]

The list goes on.
SMILES	D2 potentiator	Menin MLL FP FL	Sfp PPTase inh	gsp antagonist	ClpP mod	TRPV1 potentiator	gsp ag
COc1ccc(-n2c(-c3ccc(Br)cc3)nc(=S)c3c2CCCC3)cc1	-7	0.3	22%	-7%	0.9%	-3	1%[15.4 µM]
Cc1nc2ccccn2c1-c1csc(Nc2ccc(C(=O)O)cc2)n1	-7	-0.7	-11%	14%	-28%	6	?
O=C(Nc1ccc2c(c1)OCCO2)C1CC(O)CN1C(=O)Nc1ccccc1 (stereo unspecified)	-2	-5.7	6%	5%	.	14	-40%[inhibitor]
Cc1cc(C(F)F)n2ncc(C(=O)N3CCC(C(N)=O)CC3)c2n1	-14	-2.1	-4%	0%	-0.5%	3	?
COC(=O)[C@@H](N)Cc1ccc(O)c(O)c1	-6	3.7	56µM*	-4%	2.0%	-31	.
CCOc1ccc(Oc2c(/C=N/NC(N)=O)c(C)nn2-c2ccccc2)cc1	6	5.7	-14%	4%	.	2	-26%
CCOc1ccc(S(=O)(=O)NCC(=O)OCc2nnc(-c3ccccc3)o2)cc1	-1	.	.	-22%	-2.7%	-2	-11%

From PubChem
